Compound activity: PubChem, PCMD
Biofilm kill mix: mixtures killing C. albicans biofilm; C. albicans biofilm persisters + clotrimazole, fluorescence viability; primary screen in compound mixtures of four per well; inhibition, % at 7.6 µM; hit rate 0.02% among 120,000; AID 1242;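 active = inhibition above 30.3% in the primary screen of four-compound pools, then above 30% when the compound was retested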;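 note: compounds exposed to preformed 24 h biofilms for 48 h; the number belongs to the whole pool; some results filed as inactive read as strong as hits; inactives centre near 12; 0% = biofilm with clotrimazole alone and 100% = kill control; retested singly at about 60 µM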
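Incubation: 24 h biofilm formation, then 48 h compound exposure, 37 °C | Material: C. albicans biofilms | Buffer or medium: RPMI/MOPS medium, pH 7.0 | Measured by: 2-h Alamar Blue fluorescence, 535/590 nm excitation/emission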
* marks the source's active call; other numbers are inactive results. Some of the compounds tested. The share of hits here may be higher or lower than overall.

SMILES | Biofilm kill mix
COc1cccc(NC(=O)C(Sc2nc3ccccc3c(=O)n2CC(C)C)c2ccccc2)c1 (stereo unspecified) | 18
CCCNC(=S)N1CCN(Cc2ccc3c(c2)OCO3)CC1 | 25
O=C(CCCOc1ccc(Cl)cc1Cl)NN1CCOCC1 | 14
O=c1oc2ccccc2c(N2CCOCC2)c1[N+](=O)[O-] | 1
CCOC(=O)C1=NN(c2cccc(Cl)c2)C2=NC(C)=C(C(=O)OC)C(c3cccs3)N12 (stereo unspecified) | 16
C=C1C2(C(=O)Nc3ccc(SC(F)F)cc3)CCC(C2)C1(C)C (stereo unspecified) | 11
O=S(=O)(NC1CCN(Cc2ccccc2)CC1)c1ccc(Cl)cc1 | 7
COc1ccc(C2OC(=O)Cc3cc(OC)c(OC)cc32)cc1 (stereo unspecified) | 4
CCO[C@@H]1OC(C(N)=O)=C[C@H](C2CCCCC2)[C@H]1CCCO | 21
O=C(NCCc1nc2ccccc2[nH]1)/C(=C/c1ccc(F)cc1)NC(=O)c1ccco1 | 14
CCO[C@H]1OC(C(=O)N2CCOCC2)=C[C@@H](c2ccc(C(F)(F)F)cc2)[C@@H]1CCCO | 24
CCC(=O)c1ccc(OCC(=O)Nc2ccc3nc(C)sc3c2)cc1 | 12
COc1ccc(N(C(=O)/C=C/C(=O)Nc2cc(C)on2)C(C(=O)NC2CCCC2)c2ccccc2C)cc1 (stereo unspecified) | -4
O=C(COc1ccccc1)NNc1nc2c(F)cccc2s1 | 6
CCc1ccccc1NC(=S)NNC(=O)c1ccccc1Cl | 14
COCCCNC(=O)CN1C(=O)/C(=C/c2ccccc2)Sc2ccccc21 | 22
O=C1C2C3C=CC(C3)C2C(=O)N1CCN1CCN(Cc2ccc([N+](=O)[O-])cc2)CC1 (stereo unspecified) | 8
O=S(=O)(c1ccc2ccccc2c1)N1CCN=C1SCc1cccnc1 | 22
CC(C)(C)NC(=O)C(=O)NC(=O)c1c(F)cccc1Cl | 16
C/C=C(/C)C(=O)Nc1cccc(C2=NOC3(C2)C[C@@H](C(N)=O)N(C(=O)c2ccc(OC)cc2)C3)c1 (stereo partly specified) | 14

Compounds from the list above with a Cl atom (five):
SMILES | Biofilm kill mix
O=C(CCCOc1ccc(Cl)cc1Cl)NN1CCOCC1 | 14
CCOC(=O)C1=NN(c2cccc(Cl)c2)C2=NC(C)=C(C(=O)OC)C(c3cccs3)N12 (stereo unspecified) | 16
O=S(=O)(NC1CCN(Cc2ccccc2)CC1)c1ccc(Cl)cc1 | 7
CCc1ccccc1NC(=S)NNC(=O)c1ccccc1Cl | 14
CC(C)(C)NC(=O)C(=O)NC(=O)c1c(F)cccc1Cl | 16

(more compounds)
SMILES | Biofilm kill mix
O=C(CSc1nnc(NC(=O)c2ccccc2F)s1)Nc1ccccc1F | 12
O=C(N/N=C/c1ccc[nH]1)c1ccccc1OCc1ccc(F)cc1 | 16
COC(=O)CCC(=O)N1CCCC(CO)(Cc2ccccc2C)C1 (stereo unspecified) | 10
O=C(Cc1ccccc1Cl)Nc1nc2ccccc2[nH]1 | 15
Clc1ccccc1Nc1nnc(-c2ccncc2)s1 | 12
O=C(C1=C[C@H](C2CC2)C[C@H](OCCCCO)O1)N1CCN(Cc2ccc3c(c2)OCO3)CC1 | 18
CC(=O)c1ccc(N/N=C2/CCCNC2=O)cc1 | 12
CC1=CC2=NC(=O)/C(=C\c3cccn3CCOc3cc(C)cc(C)c3)C(=N)N2O1 | 18
COCCNS(=O)(=O)c1ccc2c3c(cccc13)C(=O)N2C | 10
Cc1nn(-c2ccccc2)c(=S)c2ccccc12 | -8
CCOC(=O)c1[nH]c2ccc(OC)cc2c1NC(=S)N1CCN(c2ccccc2OC)CC1 | 9
O=C(O)CCNS(=O)(=O)c1ccccc1Br | 9
Cc1cc(C)n(-c2nc(N(c3ccccc3)c3ccccc3)nc(-n3nc(C)cc3C)n2)n1 | 10
CC(OC(=O)c1cccn1C)C(=O)Nc1ccc2c(c1)OCO2 (stereo unspecified) | -6
C/C(=N\NC(=O)c1nonc1N)c1cccs1 | 7
CCc1cccc(CC)c1NC(=O)Cn1c(-c2ccc(F)cc2)noc1=O | 16
C/C(=N\NC(=O)c1nn(C)cc1Br)c1ccncc1 | 18
Cc1ccc(CN2CCN(Cc3cccc4c3OCO4)CC2CCO)cc1 (stereo unspecified) | 6
CC1(C)CC(=O)C(CC(=O)N2CCC(Cc3ccccc3)CC2)C(=O)C1 | -3
CCOc1ccc(/C=N/Nc2ccccn2)cc1 | 30
CCCCCCSc1nsc(NC(=O)CCC)n1 | 1
O=C(NCCCN1CCOCC1)C(=O)N/N=C/c1c2ccccc2cc2ccccc12 | 13
COc1cc(NC(=O)c2ccc(C)cc2)c(OC)cc1NC(=O)CN1CCCCC1 | 8
CCOc1cc(C(=O)N/N=C/C(Br)=C/c2ccccc2)cc(OCC)c1OCC | 11
COc1cc(C(=O)Nc2c(C)cc(C)cc2C)c(Br)c(OC)c1OC | 3
CC(=O)Nc1ccc(/C=N/NC(=S)NC(C)C)cc1 | 10
CCN(CC)C(=O)c1ccc(O)c(OC)c1 | 9
CCOc1ccc(CNC(=O)c2ccc(Sc3ccc(Cl)cc3)c(NC(C)=O)c2)cc1 | 6
NC(=O)c1ccc(/C(N)=N/S(=O)(=O)c2cc(C(F)(F)F)cc(C(F)(F)F)c2)cc1 | 16
COc1ccc(Oc2ccc(C(F)(F)F)cc2NC(=O)c2ccc(C)cc2)cc1 | 19

2 entries picked at random from the list so far:
SMILES | Biofilm kill mix
COc1ccc(Oc2ccc(C(F)(F)F)cc2NC(=O)c2ccc(C)cc2)cc1 | 19
O=S(=O)(c1ccc2ccccc2c1)N1CCN=C1SCc1cccnc1 | 22

(next part)
SMILES | Biofilm kill mix
COc1cccc(CNC(=O)C2CCN(S(=O)(=O)N3CCC4(CC3)OCCO4)CC2)c1 | 15
CC1(C)Oc2ccc3ccc(=O)oc3c2/C(=C/NC2CCCCC2)C1=O | 7
CC(=O)Oc1ccc(C(=O)NCCc2ccccc2)cc1 | 8
CN(C(=S)Oc1ccc(C(=O)Nc2ccccc2)cc1)c1ccccc1 | 11
CC(NC(=O)COC(=O)CCc1ccc(S(=O)(=O)N2CCOCC2)cc1)C1CC2CCC1C2 (stereo unspecified) | 16
Cc1cc(C)nc(Nc2n[nH]c(-c3ccccc3N)n2)n1 | 15
NC(=O)c1ccc(Oc2ncc(C(F)(F)F)cc2Cl)cc1 | 12
COCc1cc(=O)[nH]c(-c2csc(C)n2)n1 | 17
O=C(CSC(=S)N1CCN(c2ccccc2)CC1)Nc1nc(-c2ccccc2)c(-c2ccccc2)o1 | 10
CC(C)CCc1noc(CN2CCN(CC(=O)NC(C)C)CC2)n1 | 13
C/C(=C\C(=O)c1c(O)cc(C)oc1=O)N(C)C | 10
Cc1ccccc1Cn1cnc2ccccc21 | 31
CCOC(=O)N1CCN(CCC(=O)Nc2cc(OC)ccc2OC)CC1 | 10
O=C(CC12CC3CC(CC(C3)C1)C2)NC(Cc1ccccc1)C(=O)O (stereo unspecified) | 12
CC1=C[C@H]2OC(=O)[C@@H](C)[C@H]2C[C@@H]2[C@H]1C[C@@H](O)[C@@]2(C)O | 7
O=C(c1ccc(Cl)cc1)N(c1ccccn1)C1CCCCC1 | 13
CN(C(=O)CC1C(=O)NCCN1CC1CCCCC1)C1CCOCC1 (stereo unspecified) | 13
COC(=O)C1=C(C)NC2=C(C(=O)CC(C)(C)C2)C1c1ccccn1 (stereo unspecified) | 10
COc1ccc(N2C(=O)CC(Sc3nc4ccccc4s3)C2=O)cc1OC (stereo unspecified) | 9
C=C1CCN(CC(=O)OC)S(=O)(=O)c2ccccc21 | 16
O=c1c2ccccc2c(-c2ccccc2)nn1-c1cc(Cl)cc(Cl)c1 | 18
O=C(CN1C(=O)C(=O)c2ccccc21)NCCc1ccccc1 | 9
CCOC(=O)C(NC(=O)CC(C)C)(Nc1sc(C)c(CC)c1C#N)C(F)(F)F (stereo unspecified) | 17
Cc1cc(C)n2nc(C(=O)Nc3cccc(S(=O)(=O)N4CCCC4)c3)nc2n1 | 13
Cc1ccc(-c2nnc(CCC(=O)NCC3C4CC5CC(C4)CC3C5)o2)s1 (stereo unspecified) | 15
Cc1csc(SCC(=O)NC(=O)NC2CCCC2)n1 | 13
CC1=C(C(=O)NCCc2ccc(C)cc2)C2(CCC(C)CC2)OC1=O (stereo unspecified) | 17
CCOCCCNC(=O)c1c[nH]c2ccc(OCC)cc2c1=O | 12
N=c1sccn1CC(=O)NC(=O)NC1CCCC1 | 17
Cc1cc(C[n+]2cc(Br)ccc2N)c2ncccc2c1 | 16

Part of the list above in order of count of non-hydrogen atoms, smallest number first:
SMILES | Biofilm kill mix
N=c1sccn1CC(=O)NC(=O)NC1CCCC1 | 17
CC1=C(C(=O)NCCc2ccc(C)cc2)C2(CCC(C)CC2)OC1=O (stereo unspecified) | 17
Cc1ccc(-c2nnc(CCC(=O)NCC3C4CC5CC(C4)CC3C5)o2)s1 (stereo unspecified) | 15

More results follow.
SMILES | Biofilm kill mix
CCSc1nc(N)c2c(C)c(C)sc2n1 | 9
CCCOc1ccc(N2C(=O)CC(N(CCCO)C(=O)CC)C2=O)cc1 (stereo unspecified) | 10
Cc1ccc(S(=O)(=O)N2CCN(c3ccnc4cc(Cl)ccc34)CC2)cc1C | 17
Cc1ccc(CNC(=O)c2ccc(OCC3CCCO3)cc2)cc1 (stereo unspecified) | 8
Cc1ccc(C2C3=C(Nc4[nH]n(-c5ccccc5)c(=O)c42)c2ccccc2C3=O)cc1 (stereo unspecified) | 13
Cc1ccc(OC(=S)Nc2ccccc2)c(C)c1 | 17
CN(C(=O)CSc1nnnn1-c1ccccc1)C1CCS(=O)(=O)C1 (stereo unspecified) | 32
CO/N=C/c1ccc(Oc2ccc(C)cc2)c([N+](=O)[O-])c1 | 12
Cc1cccc2cc(C#N)c(SCc3nnc(-c4ccccc4[N+](=O)[O-])o3)nc12 | 8
CCOc1cc2c(cc1OCC)C(c1ccccc1)N(c1ccccc1)C(=O)C2 (stereo unspecified) | 10
Cc1cc(O)c(-c2cc(C(=O)Nc3cccnc3)[nH]n2)cc1C | 20
COc1ccc(-n2c(CCc3ccccc3)nnc2SCC(=O)c2ccccc2)cc1 | 12
CC1CCCCC1NC(=O)CCCCCn1c(=S)[nH]c2ccccc2c1=O (stereo unspecified) | 15
CC(C)(C)n1nnnc1C(c1ccc(C(F)(F)F)cc1)N(Cc1ccc(F)cc1)Cc1ccco1 (stereo unspecified) | 11
O=C(O)CC(c1cccc([N+](=O)[O-])c1)N1Cc2ccccc2C1=O (stereo unspecified) | 13
CCOc1ccccc1NC(=O)NCCC1=CCCCC1 | 15
COc1ccc2oc(=O)c(/C(C)=N/Nc3ccccc3)cc2c1 | 23
COCCn1c(-c2ccc(Br)cc2)nc2oc3cc(OC)ccc3c(=O)c2c1=O | 16
CCSc1nnc(NC(=O)CSc2nnc(CNC(=O)c3ccc(OC)c(OC)c3)o2)s1 | 8
O=C(C1CCN(C2CCN(Cc3ccc4cc(F)ccc4n3)CC2)CC1)N1CCCC1 | 10
CCCC(C)C(=O)OCC(=O)Nc1ccc(Br)cc1 (stereo unspecified) | 7
Cc1ccccc1-n1c(C)c(C#N)c(=O)c(-[n+]2ccccc2)c1[S-] | 11
CCOc1cc(/C=N/N=C2/NC(=O)C(CC(=O)O)S2)ccc1OCc1ccc(Cl)cc1 (stereo unspecified) | 14
COc1ccc(-c2nc(CN(Cc3cnn(C)c3)C(C)C)c(C)o2)c(OC)c1 | 12
Cc1cccc2nc(CSc3ccccc3N)cn12 | 20
CCOC(=O)C(CC)/C(C)=N\NC(=O)c1ccccc1O (stereo unspecified) | 7
Nc1ccc2c(c1)Cc1cc([N+](=O)[O-])ccc1-2 | 12
COCCSc1nnc(NS(=O)(=O)c2ccccc2)s1 | 19
CSc1ccc(Cl)c(C(=O)OCC(=O)N(C)CCC#N)c1 | 16
CCCC(c1nnnn1CCc1ccccc1)N1CCC(C(N)=O)CC1 (stereo unspecified) | 10
O=C(COC(=O)c1cn(-c2ccccc2)nc1-c1ccc(F)cc1)Nc1ncc(Cl)cc1Cl | 18
CC1=NN(C(=O)Cn2nc([N+](=O)[O-])cc2C)C(O)(C(F)(F)F)C1 (stereo unspecified) | 14
CCCCCCCCCC(=O)Nn1cnc2ccccc2c1=O | 24
COCCNC(=O)CSc1ccccc1C(=O)NCC1CCCCC1 | 7
COc1ccc(/C=C/c2nnc(NC(=O)C(C)C)s2)cc1 | 29
CCOC(=O)C1CCN(C(=O)c2cccs2)CC1 | 7
O=C(c1ccco1)N1N=C(c2ccc(Cl)cc2)CC1(O)C(F)(F)F (stereo unspecified) | 12
Cc1ccc2c(c1)C(c1ccc(F)cc1)N(C(=O)c1cc3ccccc3oc1=O)CC(=O)N2 (stereo unspecified) | 13
CSc1ccc(/C=C/C(=O)NC(=O)c2ccccc2O)cc1 | 7
COC(=O)c1cc2c(ccn2-c2ccc(F)cc2)n1Cc1ccc(OC)cc1 | 10
Cc1ccc2ncnc(NCCC(=O)O)c2c1 | 15
O=S(=O)(Oc1ccccc1/C=N/n1cnnc1)c1ccccc1 | 4
C/C(=C\C(=O)OCC(=O)NCc1ccccc1)C(=O)OCC(=O)NCc1ccccc1 | -1
O=C(COC(=O)c1ccc(O)cc1)Nc1ccc(OC(F)F)cc1 | 11
CC(C(=O)NCCc1ccc(F)cc1)N1CCN(Cc2ccccc2)CC1 (stereo unspecified) | 11
